Arbovirus inh = arbovirus infection inhibition | AID 1251 | 200,000 compounds, 0.37% hits | inhibition, % at 10 µM | arbovirus infection cell-based antiviral screen;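 active means inhibition from about 30%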;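 further: bluetongue infection of BSR cells; cell survival read as ATP light after 72 h; 0% = infected wells without compound and 100% = uninfected wells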
RecA intein inh = inhibitors of M. tuberculosis RecA intein splicing. P9WHJ3. cell-free RecA intein splicing, fluorescence. inhibition, %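 (about 9 µM by stock and volumes)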. 290,000 compounds, 0.75% hits. AID 2221; in the data active means inhibition above about 30%; inconclusive means no clear call, values can overlap the other calls;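 further: 0% = vehicle wells and 100% = reference inhibitor control wells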
Target sequence (P9WHJ3 whole entry, looked up): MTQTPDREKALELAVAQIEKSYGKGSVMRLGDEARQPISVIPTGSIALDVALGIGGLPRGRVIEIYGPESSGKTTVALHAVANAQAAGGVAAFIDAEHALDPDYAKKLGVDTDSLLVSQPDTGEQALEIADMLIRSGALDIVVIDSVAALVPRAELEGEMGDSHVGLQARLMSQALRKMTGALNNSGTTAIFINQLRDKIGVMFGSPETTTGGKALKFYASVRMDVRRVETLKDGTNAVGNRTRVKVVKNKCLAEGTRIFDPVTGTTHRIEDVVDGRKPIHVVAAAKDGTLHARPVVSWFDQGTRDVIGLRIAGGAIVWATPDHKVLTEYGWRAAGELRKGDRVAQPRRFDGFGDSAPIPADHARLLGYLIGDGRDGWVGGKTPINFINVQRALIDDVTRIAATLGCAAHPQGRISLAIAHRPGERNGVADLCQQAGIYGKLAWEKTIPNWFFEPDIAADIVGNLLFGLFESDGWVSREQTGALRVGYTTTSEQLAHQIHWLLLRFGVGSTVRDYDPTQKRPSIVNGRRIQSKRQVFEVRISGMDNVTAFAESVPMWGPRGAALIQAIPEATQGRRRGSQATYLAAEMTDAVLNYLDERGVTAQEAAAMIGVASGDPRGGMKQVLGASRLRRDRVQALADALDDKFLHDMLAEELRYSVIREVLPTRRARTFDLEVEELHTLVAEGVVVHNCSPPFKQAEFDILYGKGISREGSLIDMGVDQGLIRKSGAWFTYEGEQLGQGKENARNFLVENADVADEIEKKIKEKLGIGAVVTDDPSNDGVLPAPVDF
YopH inh = YopH (Yersinia) phosphatase inhibition; fluorescence Ex485/Em525; inhibition, %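 (about 10 µM by stock and volumes)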; 140,000 compounds, 0.16% hits; AID 898;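 active means inhibition of 50% or more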;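 further: controls were vehicle for no effect and minimum signal wells for full effect; inactives centre near -20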
Mtb H37Rv = M. tuberculosis H37Rv growth inhibitors, H37Rv strain (AID 1626) | 220,000 compounds, 0.95% hits | M. tuberculosis H37Rv growth inhibition; higher % means a stronger effect | one-dose inhibition, % at 10 µM; IC50 in µM for titrated hits;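 active means confirmed in a dose series; inconclusive means inhibition above 80% but not taken into the dose series; inactive means below 80% or under 30% at every dose of the series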;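 further: bacteria incubated seven days before Alamar blue readout; 0% = bacteria only wells and 100% = bacteria with antibiotic wells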
Mtb bLac sens = beta-lactam sensitization of Mtb H37Rv | M. tuberculosis H37Rv growth with meropenem, percent inhibition; hits of this screen are not shown here | inhibition, % at 25 µM | 330,000 compounds, 0.27% hits | AID 434955;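 active means about 74% or more and at least 40 points above the plate without the antibiotic, then above 30% in a dose series; inconclusive means first-round hits that could not be retested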;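 further: growth measured after seven days incubation then overnight dye step; 0% = bacteria only wells and 100% = bacteria with antibiotic; twin plates without the antibiotic show which effects depend on it; some results filed as inactive read as strong as hits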
Arbovirus inh repeat = second read-out of Arbovirus inh, no call of its own (marks repeat the call); inhibition, %; measured here: 10K subset replicate screen; many hits read low in the repeat;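 first of two repeat runs on a subset; 0% = infected and 100% = uninfected wells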
* marks the source's active call; other numbers are inactive results; ? = inconclusive; . = no result given.

SMILES | Arbovirus inh | RecA intein inh | YopH inh | Mtb H37Rv | Mtb bLac sens | others
O=C1N=C(N2CCCC2)S/C1=C\C=C\c1ccccc1 | . | . | . | -5% | 2
COc1ccc(Br)cc1CN(C)CC(=O)Nc1c(Cl)cccc1Cl | 30* | 16 | -26 | 2% | -2
C[n+]1cccc(C2C(C#N)=C(N)Oc3c2ccc2ccccc32)c1 (stereo not drawn) | . | -5.1 | . | 1% | -12
C=C(C)C(=O)O[C@H]1C/C(C)=C\C(=O)/C=C(\C)[C@H](O)[C@@H]2OC(=O)C(=C)[C@@H]21 | . | 0.8 | . | -5% | .
Cc1ccc(CCNC(=O)C2CCCN(S(=O)(=O)c3cnc[nH]3)C2)cc1 (stereo not drawn) | 3 | . | -32 | -4% | -1
O=C(NNC(=O)c1ccc[nH]1)c1cccc(C(F)(F)F)c1 | . | -0.1 | . | . | -5
O=C1c2ccccc2C(=O)N1c1n[nH]c(CCc2ccccc2)n1 | -10 | -1.7 | -31 | 2% | 2
Cc1cccc2c1CC(C)(C)N=C2C1=C(O)CC(C)(C)CC1=O | -4 | 3.2 | -13 | 2% | -14
Cc1nc2sc3c(c2c(=N)n1N)CCCC3 | -1 | 0.3 | . | 0% | 4
CCc1ccccc1NC(=S)N1CCC(NC(=O)c2ccc(OC)cc2)CC1 | 15 | -1.5 | . | 7% | 1
O=C(N/C(=C\c1ccco1)C(=O)N1CCCC1CO)c1ccccc1 (stereo not drawn) | . | 0.2 | . | . | -5
Cc1nccn1CCC(=O)Nc1ccc(Cl)cc1 | 2 | 0.2 | . | -3% | -5
CN1CCN(C(=O)C2CCN(S(=O)(=O)c3cnc[nH]3)CC2)CC1 | 4 | -0.7 | -26 | 9% | -2
C/C(=C\C(=O)Nc1cscc1C)C(=O)O | . | . | . | -7% | -4
CCN1CCN(c2ccc(S(=O)(=O)N3CCCCC3)cc2NC(=O)/C=C/c2cccc(OC)c2OC)CC1 | . | 0.9 | . | . | 1
CCCc1[nH]c(=O)c(C#N)c2c1CCCC2 | 7 | -2.9 | -25 | -3% | 6
COc1ccc2c3c(c(=O)oc2c1OCC(=O)C(C)(C)C)CCCC3 | 2 | -1.2 | -28 | 5% | 1
Cn1c(SCc2ccccc2Cl)nc(C(F)(F)F)cc1=O | 5 | 3.1 | -14 | 4% | 3
Cc1ccc(C)n1-c1ccc(N(C)C)cc1 | -5 | 2.6 | . | . | -6
CCCCCCn1c(O)c(/C=C2\C=NN=C2c2ccccc2)sc1=S | -36 | 2.8 | -21 | 9% | 3
CC(=O)Nc1nnc(CSCc2ccc(F)cc2)s1 | . | 0.0 | . | -6% | 5
O=C(CC1C(=O)NCCN1CC1CCCCC1)NCc1ccc(F)cc1F (stereo not drawn) | 2 | 2.8 | . | -12% | 3
COc1cc(C(=O)Oc2cccc(/C=N/NC(=O)c3cc(C)[nH]n3)c2)cc(OC)c1OC | . | -0.3 | . | . | 3
O=C(O)c1cccc(C(=O)c2cccc(C(=O)O)c2)c1 | -5 | 1.3 | . | 3% | -5

A draw from above in order of length of the SMILES, rising:
SMILES | Arbovirus inh | RecA intein inh | YopH inh | Mtb H37Rv | Mtb bLac sens | others
CCCc1[nH]c(=O)c(C#N)c2c1CCCC2 | 7 | -2.9 | -25 | -3% | 6
CC(=O)Nc1nnc(CSCc2ccc(F)cc2)s1 | . | 0.0 | . | -6% | 5
Cn1c(SCc2ccccc2Cl)nc(C(F)(F)F)cc1=O | 5 | 3.1 | -14 | 4% | 3
O=C(O)c1cccc(C(=O)c2cccc(C(=O)O)c2)c1 | -5 | 1.3 | . | 3% | -5
CCCCCCn1c(O)c(/C=C2\C=NN=C2c2ccccc2)sc1=S | -36 | 2.8 | -21 | 9% | 3
CN1CCN(C(=O)C2CCN(S(=O)(=O)c3cnc[nH]3)CC2)CC1 | 4 | -0.7 | -26 | 9% | -2

New compounds follow
SMILES | Arbovirus inh | RecA intein inh | YopH inh | Mtb H37Rv | Mtb bLac sens | others
CCC(C(=O)N1CCN(c2ccccc2OC)CC1)c1ccccc1 (stereo not drawn) | -17 | 3.1 | -30 | 3% | -1
COc1ccc(N(CC(=O)N/N=C/c2cc3ccc(OC)cc3nc2Cl)S(=O)(=O)c2ccccc2)cc1 | 4 | 0.4 | -30 | 4% | 4
O=C(O)CC/C(=N\NC(=O)CNC(=O)c1cccc(Cl)c1)c1ccccc1 | 9 | -0.4 | . | 1% | 5
CCCC(=NCCc1c(C)[nH]c2ccccc12)C1=C(O)CC(c2ccccc2)CC1=O (stereo not drawn) | -3 | 3.4 | -11 | 1% | 11
COc1ccc(-n2nnc3c(=O)n(CC(=O)N4CCC(C)CC4)cnc32)cc1 | -3 | -6.2 | -16 | 2% | 3 | Arbovirus inh repeat=3
CCC1CCCCN1C(=S)Nc1ccc(OC(F)F)cc1 (stereo not drawn) | 14 | 0.5 | -25 | 5% | 0
c1ccc(N2CCN(c3nnnn3-c3ccccc3)CC2)cc1 | -3 | 1.8 | -25 | 1% | -6 | Arbovirus inh repeat=2
CCOC(=O)N1CCC(NC(=O)C2CCC(Cn3c(=O)[nH]c4ccccc4c3=O)CC2)CC1 (stereo not drawn) | . | . | 6 | . | -2
COCCn1c(SCC(=O)N(C)c2c(N)n(Cc3ccccc3)c(=O)[nH]c2=O)nnc1-c1cccc(C)c1 | . | -1.7 | . | . | -10
COc1cccc(CNS(=O)(=O)c2c(C(=O)N3CCCC3)c(C)n(C)c2C)c1 | . | -0.9 | . | . | -7
Cc1ccccc1C(=O)O/N=C/c1c(N2CCOCC2)n(C)c2ccccc12 | -13 | 4.9 | -33 | ? | 68
Cc1cccc(/C=N/NC(=O)Cn2nccc2C)n1 | -6 | -5.4 | -34 | -1% | 0

3 compounds drawn at random from those above, as already listed:
SMILES | Arbovirus inh | RecA intein inh | YopH inh | Mtb H37Rv | Mtb bLac sens | others
CCOC(=O)N1CCC(NC(=O)C2CCC(Cn3c(=O)[nH]c4ccccc4c3=O)CC2)CC1 (stereo not drawn) | . | . | 6 | . | -2
CCCC(=NCCc1c(C)[nH]c2ccccc12)C1=C(O)CC(c2ccccc2)CC1=O (stereo not drawn) | -3 | 3.4 | -11 | 1% | 11
COCCn1c(SCC(=O)N(C)c2c(N)n(Cc3ccccc3)c(=O)[nH]c2=O)nnc1-c1cccc(C)c1 | . | -1.7 | . | . | -10

New compounds follow.
SMILES | Arbovirus inh | RecA intein inh | YopH inh | Mtb H37Rv | Mtb bLac sens | others
COc1ccc(NC2(C#N)CCCCC2)cc1 | -2 | 5.5 | . | >100µM* | 91
CNS(=O)(=O)c1ccc(NS(=O)(=O)c2ccccc2F)cc1 | 7 | -0.9 | . | -2% | 1
Cc1c(Br)c([N+](=O)[O-])nn1CC(=O)N(C)Cc1ccccc1 | -4 | . | . | 0% | -2
CC(C)(C)c1cnnn1-c1ccc(C=O)cc1 | -5 | -1.6 | -29 | -5% | -9
FC(F)(F)c1nnc2n1N=C(c1cccs1)CS2 | 1 | 4.8 | . | 5% | 7
Cc1csc(SCC(=O)Nc2ccccn2)n1 | -6 | 0.8 | 8 | 0% | -1
Cc1ccc(NC(=O)Cn2ccnc2)cc1C | . | -3.3 | . | . | -3
Cc1ccc(-c2c[n+]3c(n2-c2ccccc2)SCC3)cc1 | . | 0.5 | . | -1% | -3
O=C(NC(=S)NCc1ccncc1)c1ccccc1 | 4 | -1.9 | . | -2% | -5
COc1cc(/C=C2\N=C(c3ccccc3)OC2=O)ccc1OCc1c(C)no[n+]1[O-] | 3 | 1.9 | -27 | -2% | 55
O=C(O)c1cccc(N2C(=O)C3CC=C(Cl)CC3C2=O)c1 (stereo not drawn) | 0 | -0.8 | -42 | -6% | 3 | Arbovirus inh repeat=3
CCC(C)C12CN3CCN(CC(C)(C3)C1=O)C2 (stereo not drawn) | 12 | -1.2 | 18 | 2% | 1
Cc1csc(NC(=O)CSc2nnc(-c3ccncc3)o2)n1 | -7 | -0.6 | -27 | 7% | 68
Cc1c(C(=O)NCCCN2CCCC2=O)oc2c(Cl)cccc12 | . | -0.6 | . | . | -5
COc1cc(NC(N)=S)c(OC)cc1Cl | . | -5.1 | . | 1% | -13
CN(CC1CCCO1)S(=O)(=O)c1ccc(C(=O)Nc2nccs2)cc1 (stereo not drawn) | . | 1.1 | . | 2% | -2
CCn1c(C)nc2cc(OC)ccc21 | 9 | 0.0 | . | -3% | -1
CP(C)(=O)CCC(=O)O | -2 | 4.5 | -5 | -5% | -2 | Arbovirus inh repeat=0
CN(C)CCCN(C(=O)c1ccc(S(=O)(=O)N(C)C2CCCCC2)cc1)c1nc2ccc(Br)cc2s1 | . | 10 | . | . | 31
Cc1nn(Cc2c(Cl)cccc2Cl)c(C)c1NC(=O)CCCn1nc([N+](=O)[O-])c(Cl)c1C | -10 | 0.8 | -8 | 4% | 0
O=Nc1onc(-c2ccc([N+](=O)[O-])cc2)c1NO | -3 | -5.7 | . | -14% | 0
CCCC(=O)Nc1cc(C)c(NC(=O)c2cccs2)cn1 | 9 | -0.5 | . | 1% | -11
Cn1nc(C(F)(F)F)c(/C=N/OC(=O)c2ccccc2)c1SCc1ccc(Cl)cc1 | -24 | 1.3 | -45 | 0% | 3
CC(=O)c1c(C)[nH]c(C(=O)Nc2cccc(C#N)c2)c1C | . | 2.0 | . | . | -3
OCCNc1nc(Nc2ccccc2OC(F)(F)F)nc(N2CCCC2)n1 | . | 0.8 | . | 5% | 63
O=C(CSc1ccccn1)Nc1cccc([N+](=O)[O-])c1 | 10 | 0.5 | . | -1% | -5
C(=N/n1c2ccccc2c2ccccc21)/c1ccco1 | 14 | 7.8 | 3 | 9% | 16
Cc1ccccc1-c1nc(CS(=O)CC(=O)NCCc2ccc(Cl)cc2)c(C)o1 (stereo not drawn) | . | -0.8 | . | . | 9
O=C(NCCN1C(=O)S/C(=C/c2ccccc2)C1=O)C1CCCN1C(=O)c1cccs1 (stereo not drawn) | 0 | 2.7 | -48 | -3% | -5
CCN1C(=O)[C@H]2[C@@H](c3ccc(-c4cccc(Cl)c4)c(OC)c3)N[C@@](Cc3ccccc3)(C(=O)OC)[C@H]2C1=O | . | 1.4 | . | . | -11
CCC(=O)c1ccc(OCC(=O)Nc2cc(S(=O)(=O)N3CCCCC3)ccc2N2CCN(CC)CC2)cc1 | . | 12 | . | . | -9
O=C1CCCc2nc(N3CCN(Cc4ccccc4)CC3)ncc21 | 1 | 0.1 | -27 | -9% | -6
CCN(Cc1ccncc1)Cc1nc(Cc2ccccc2Cl)no1 | 8 | 0.0 | . | 5% | 6
O=C1CSC(c2cccnc2)N1Cc1ccc(Cl)cc1 (stereo not drawn) | . | 1.7 | . | -2% | 7
CN(CC(=O)Nc1c(Cl)cccc1Cl)C(=O)CNC(=O)C1CCCCC1 | . | 1.6 | . | . | 4
O=Cc1cc2ccccc2nc1SCCCF | -1 | 7.7 | . | 8% | -6
COC(=O)c1ccccc1OCC(=O)NC1CCCCC1 | 1 | 2.2 | -2 | 2% | 53
Cc1cc2cc(C)c(SCC(=O)NCc3ccco3)nc2cc1C | -3 | 2.1 | . | 2% | 43
COC(=O)c1ccc(COc2c(F)c(F)cc(F)c2F)o1 | . | 1.7 | . | . | 29
CCC1S/C(=N/C(=O)NC2CCCCC2)NC1=O (stereo not drawn) | 11 | 1.1 | -21 | -4% | -11
COC(=O)c1ccc(NC(=O)CCS(=O)(=O)c2ccc3c(c2)NC(=O)C(C)S3)cc1 (stereo not drawn) | . | -11 | . | . | 8
OCCCNc1ncnc2sc(-c3ccccc3)cc12 | 0 | 1.4 | . | -1% | -6
Cc1c(NC(=O)C(C)OC(=O)COc2ccccc2)c(=O)n(-c2ccccc2)n1C (stereo not drawn) | 7 | -1.1 | . | -4% | 7
O=C(NC1CCCCC1)C(c1ccc(F)cc1)N(Cc1ccco1)C(=O)Cn1nnc2ccccc21 (stereo not drawn) | 18 | -1.6 | -35 | -6% | 2
COc1cc(CN2CCCCC2)ccc1OCc1ccccc1 | . | -1.1 | . | . | -1
Nc1cccnc1Sc1ccc([N+](=O)[O-])cn1 | -4 | 0.4 | -5 | 8% | .
Cc1csc2nc(NC(=O)c3ccccc3)sc(=O)c12 | . | -1.0 | . | 0% | 5
NC(=O)c1nsc(C(=O)N(c2ccccc2)C(C(=O)NC2CCCC2)c2ccc3ncccc3c2)c1N (stereo not drawn) | . | -2.4 | . | . | 3
CCn1cc(CNC(=O)c2ccc3nc(Cc4ccc(OC)cc4)oc3c2)cn1 | . | -1.0 | . | . | -2

These rows are one share of the data. The share of hits here may be higher or lower than overall.
